High-throughput results: PubChem, National Center for Advancing Translational Sciences (NCATS)
Methyltransferases: Primary Screen for Target Class Profiling of Small Molecule Inhibitors of Methyltransferases; purified enzyme, MTase-Glo SAH luminescence; active compounds read low; calls only at 40 µM; actives 3.9% (n = 25,000); active = -50% or lower on at least one of six enzymes; inconclusive = the cases between; inactive = as a rule above -30% on all six;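 also: enzymes were COMT GAMT GNMT HNMT NNMT and PNMT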
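Each enzyme was reacted with SAM and its substrate, with compounds tested once at 40 uM; SAH formed was read by MTase-Glo luminescence.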
Calls only; i = inactive; u = inconclusive; + = active, no number; ! = not confirmed by another sample. % is scaled to controls: 0 for no effect and ±100 for the full control effect. A portion of the library; rates above refer to the full screens.

SMILES	Methyltransferases
CN(C)Cc1nnc(C2CC(NC(=O)Cc3c(F)cccc3Cl)C2)n1C (stereo unspecified)	i
CC(C)CCCCC(=O)N[C@@H](CO)C(=O)N[C@@H](CC(C)C)C(=O)[C@@]1(CO)CO1	i
Cc1cccc(Cn2nc3n(C(C)C)c(=O)c4ccc(C(=O)NC(C)C)cc4n3c2=O)c1	i
Cc1ccc(C(=O)N2CCc3nc(-c4cn[nH]c4)[nH]c3C2)cc1N1CCNC1=O	i
Cc1ccc(NC(=O)N2CCn3cccc3C2C(C)C)c(C)c1 (stereo unspecified)	i
CC(C)NC(=O)NC[C@H]1O[C@@H](CO)[C@@H](O)[C@H]1N(C)CCN(C)C	i
O=C(OC[C@H]1O[C@H](O[C@]2(CO)O[C@H](CO)[C@@H](O)[C@@H]2O)[C@H](O)[C@@H](O)[C@@H]1O)c1ccccc1	i
Cc1cc(C)cc(NC(=O)CSc2nnc3n(C)c(=O)c4ccc(C(=O)NC5CCCC5)cc4n23)c1	i
COc1ccccc1CNC(=O)C1(C)Cn2nc(-c3ccccc3)cc2C(=O)N1c1ccc(C)c(C)c1 (stereo unspecified)	i
C[C@@H]1O[C@@H](O[C@@H]2CO[C@@H](O[C@H]3CC[C@@]4(C)C(CC[C@]5(C)C4CC=C4[C@@H]6CC(C)(C)CC[C@]6(C(=O)O[C@@H]6O[C@H](CO)[C@@H](O)[C@H](O)[C@H]6O)CC[C@]45C)[C@]3(C)CO)[C@H](O)[C@H]2O[C@@H]2O[C@H](CO)[C@@H](O)[C@H](O)[C@H]2O)[C@H](O)[C@H](O)[C@H]1O (stereo partly specified)	i
CCC(C)NC(=O)c1ccc2c(=O)n(C(C)C)c3nn(CC(=O)c4ccc(Cl)cc4)c(=O)n3c2c1 (stereo unspecified)	i
CS(=O)(=O)N(C1CC1)C1CCOC2(CCN(C(=O)CCC3CCCC3)CC2)C1 (stereo unspecified)	i
CCc1nccc(-c2c(-c3ccccc3)ncn2CC(O)c2ccccc2)n1 (stereo unspecified)	i
CCCn1c(=O)c2ccc(C(=O)NCC(C)C)cc2n2c(=O)[nH]nc12	i
O=C(O)c1cccc(CC2CCN(C(=O)CCC(F)(F)F)C2)c1 (stereo unspecified)	i
CC(=O)Oc1c(-c2ccc(NC(=O)c3ccco3)cc2)c(-c2cccc(F)c2)nn1-c1ccc(C)cc1	i
CCOc1ccccc1NC(=O)CN(C)S(=O)(=O)c1ccc2[nH]c3c(c2c1)CCCC3	i
O=C(Cn1c(=O)c2ccc(Cl)cc2n2nncc12)NCc1ccc2c(c1)OCO2	i
CC(C)CN(CC1CN(C(=O)c2ccccc2)CCO1)C(=O)c1cccc2ccccc12 (stereo unspecified)	i
CCCn1c(=O)c2ccccc2n2c(=O)n(CC(=O)Nc3cc(Cl)ccc3C)nc12	i
CC1(C(=O)NCc2ccc(F)cc2)Cn2cnc(C(=O)NCc3cccc(Cl)c3)c2C(=O)N1C1CC1 (stereo unspecified)	i
COc1cccc(-c2noc(CN3CCC(c4nc(-c5cccn5C)no4)C3)n2)c1OC (stereo unspecified)	i
Nc1nc2c(ncn2[C@@H]2O[C@H](CO)[C@@H](O)[C@H]2O)c(=O)[nH]1	i
O=C(CCn1ccc2cc(S(=O)(=O)N3CCCCC3)ccc21)N1CCC(N2CCCCC2)CC1	i
CC1(COc2ccccc2)COc2ccc(C(=O)N3CCN(c4ccccn4)CC3)cc2N1 (stereo unspecified)	i
COc1ccc(-c2cc3n(n2)CC(C)(C(=O)NCc2ccccc2OC)N(Cc2cccc(OC)c2)C3=O)cc1 (stereo unspecified)	i
COc1ccc(CCNC(=O)c2cc3n(n2)CC(C)(C(=O)NC2CCCC2)N(C)C3=O)c(OC)c1 (stereo unspecified)	i
COc1cc2c(cc1OC)N1C(=O)C[C@@]34C=CC[N@+]5([O-])CC[C@H]2[C@H](CC3)[C@@]145	i
CC1CC(C)CN(S(=O)(=O)c2ccc3c(c2)oc(=O)n3CC(=O)Nc2ccc(F)cc2)C1 (stereo unspecified)	i
CC(C)NC(=O)CSc1nnc2n(C)c(=O)c3ccc(C(=O)NC4CCCC4)cc3n12	i
CC(C)CN1C(=O)c2cccn2CC1CN (stereo unspecified)	i
COc1ccccc1CC(=O)N1CCC(n2nccc2NC(=O)c2ccccc2C)CC1	i
Cc1ccc(C(=O)Cn2nc3n(Cc4ccc(F)cc4)c(=O)c4ccccc4n3c2=O)cc1	i
CC(=O)Nc1c2n(c3ccc(F)cc13)CC(C)(C(=O)NC1CCCC1)N(C1CCCCCC1)C2=O (stereo unspecified)	i
CCCSCCCN1C(=O)c2nc3ccccc3n2CC1(C)C(=O)NC1CCCCC1C (stereo unspecified)	i
COCCN1C(=O)c2nc3ccccc3n2CC1(C)C(=O)NC1CCCCC1 (stereo unspecified)	i
OC(CCN1CCCCC1)(c1ccccc1)C1CC2C=CC1C2 (stereo unspecified)	i
COc1cccc(CN2C(=O)c3cc(-c4ccco4)nn3CC2(C)C(=O)NC2CCCCC2)c1 (stereo unspecified)	i
CC1(O)CCC2C(C3C1CCC3(C)O)C2(C)C (stereo unspecified)	i
CC1=COC(OC2OC(CO)C(O)C(O)C2O)C2C(CO)CC(OC(=O)/C=C/c3ccc(O)cc3)C12 (stereo unspecified)	i
Cc1ccc(C)c(N2CCN(C(=O)CCc3nnc4n(CCCOC(C)C)c(=O)c5ccccc5n34)CC2)c1	i
CC(C)N(C)Cc1nnnn1CC(=O)N1CCC(CCn2cccn2)CC1	i
COc1ccc(-c2nnc(-c3ccccc3)o2)cc1S(=O)(=O)N1CCCc2ccccc21	i
C1CCC(COCCc2noc(C3CNC3)n2)C1	i
N#Cc1cc2nc(O)c(O)nc2cc1[N+](=O)[O-]	i
CN(Cc1cnc2nc(N)nc(N)c2n1)c1ccc(C(=O)N[C@@H](CCC(=O)O)C(=O)O)cc1	i
CN(C)CCCNc1nc(CN2CCN(C(c3ccc(Cl)cc3)c3ccc(Cl)cc3)CC2)nc2ccccc12	+
COc1ccc(CNC(=O)C2(C)Cn3cnc(C(=O)NCCc4ccco4)c3C(=O)N2C2CC2)cc1 (stereo unspecified)	i
C[C@@H]1O[C@@H](OC2C(O[C@H]3[C@H](O[C@H]4CC[C@@]5(C)C(CC[C@]6(C)C5CC=C5C7CC(C)(C)CC(O)[C@]7(C)CC[C@]56C)C4(C)C)O[C@H](C(=O)O)[C@@H](O)[C@@H]3O)OC(CO)C(O)C2O)[C@H](O)[C@H](O)[C@H]1O (stereo partly specified)	i
COc1ccc(NC(=O)Cn2nc3n(Cc4ccc(C)cc4)c(=O)c4ccccc4n3c2=O)cc1	i
Cc1cccc(-c2nocc2CCC(=O)NCc2ccc(F)cc2F)c1	i
Fc1ccc(N2CCN(c3nc4ccccc4c4nc(-c5ccccc5)nn34)CC2)cc1	u
CCCn1cc(C(=O)NCC2COc3cc(OC)ccc3C2)c(C)n1 (stereo unspecified)	i
O=C(c1ccccc1-c1ncc[nH]1)N1CCOC(Cc2cccc(F)c2)C1 (stereo unspecified)	i
CC(=O)OCC1OC(OC2COC(OC3COC(OC4C(OC5C(CO)OC(OC6CCC7(C)C(CCC8(C)C7CC=C7C9CC(C)(C)CCC9(C(=O)OC9OC(CO)C(O)C(O)C9OC9OCC(OC%10OCC(O)(CO)C%10O)C(O)C9O)C(O)CC78C)C6(C)C)C(O)C5O)OCC(O)C4O)C(O)C3O)C(O)C2O)C(OC(=O)/C=C/c2ccccc2)C(O)C1OC(C)=O (stereo unspecified)	i
O=c1[nH]c2ccc(S(=O)(=O)N3CCc4ccccc4C3)cc2[nH]1	i
CCC1CCCCN1CCCNC(=O)c1cc2n(n1)CC(C)(C(=O)NC1CCCC1)N(C)C2=O (stereo unspecified)	i
Cc1noc2nc3c(c(C(=O)N[C@H]4CC[C@H]4N)c12)CCC3	i
O=S(=O)(c1cccc(-c2nc(-c3ccccc3)no2)c1)N1CCN(c2ccccc2F)CC1	i
CC(C)(C)NCc1cc(Nc2ccnc3cc(Cl)ccc23)c2c(c1O)CCCC2	i

(further entries)
SMILES	Methyltransferases
Cc1ccc(S(=O)(=O)NC[C@H]2OC[C@@H](NCc3ccc(S(C)(=O)=O)cc3)[C@@H]2O)cc1	i
CC(C)Cn1c(=O)c2ccc(C(=O)NC(C)C)cc2n2c(=O)n(C)nc12	i
Cc1ccc(S(=O)(=O)c2nnn3c2nc(NC(C)c2ccccc2)c2ccccc23)cc1 (stereo unspecified)	i
Cc1nc2c3ccccc3n3c(CCCC(=O)NCCc4ccccc4)nnc3n2n1	i
O=[N+]([O-])c1ccc(Nc2nc(N3CCOCC3)nc(N3CCOCC3)n2)cc1	u
O=C(CCc1c[nH]c2ccccc12)NC1CCN(c2ccc(=O)[nH]n2)CC1	i
COc1cccc(CNC(=O)N2Cc3c(sc4c3CCCC4)-n3cccc3C2c2cc(F)cc(F)c2)c1 (stereo unspecified)	i
COCCN1CC(C(=O)NCc2sc3ccccc3c2Cl)CCC1=O (stereo unspecified)	i
O=C(NCCc1ccc(Cl)cc1)C1CCc2nnc(C3CCN([S+](=O)([O-])c4ccccc4)CC3)n21 (stereo unspecified)	i
CC1(C(=O)NC2CCCCCC2)Cn2c(cc3occc32)C(=O)N1Cc1cccs1 (stereo unspecified)	i
CN1C(=O)C2(CCN(Cc3cccn3C)C2)c2ccccc21 (stereo unspecified)	i
COc1ccc(S(=O)(=O)NC[C@H]2Cn3c(-c4ccc(Cl)cc4)cnc3CO2)cc1	+
COC(=O)c1ncn2c1C(=O)N(Cc1cccc(Cl)c1)C(C)(C(=O)NC1CCCC1)C2 (stereo unspecified)	i
Cc1ccc(C(=O)NCc2nnc3ccc(-c4ccccc4)nn23)s1	i
CCCn1c(=O)c2cc(Cl)ccc2n2c(=O)n(CC(=O)Nc3cc(F)ccc3F)nc12	i

Laid out differently: 4 of the compounds above
> O=C(CCc1c[nH]c2ccccc12)NC1CCN(c2ccc(=O)[nH]n2)CC1
- Methyltransferases: i
> Cc1ccc(S(=O)(=O)c2nnn3c2nc(NC(C)c2ccccc2)c2ccccc23)cc1 (stereo unspecified)
- Methyltransferases: i
> COC(=O)c1ncn2c1C(=O)N(Cc1cccc(Cl)c1)C(C)(C(=O)NC1CCCC1)C2 (stereo unspecified)
- Methyltransferases: i
> CC1(C(=O)NC2CCCCCC2)Cn2c(cc3occc32)C(=O)N1Cc1cccs1 (stereo unspecified)
- Methyltransferases: i

Later entries.
SMILES	Methyltransferases
COC[C@@H]1CN(C(=O)c2cc(OC)cc(OC)c2)C[C@H]1c1ccncc1	i
CC(=O)N1CCN(c2ccnc(-c3nnc(C)n3C3CCCCC3)c2)CC1	i
COc1cccc(C(=O)N2CCOC[C@H](Oc3ccccc3)C2)c1	i
CCOC(=O)N1CCN(/[N+]([O-])=N/Oc2ccc([N+](=O)[O-])cc2[N+](=O)[O-])CC1	i
CC[C@@]1(O)C(=O)OCc2c1cc1n(c2=O)Cc2cc3c(CN(C)C)c(O)ccc3nc2-1	+!
O=C(CSc1nnc2n(Cc3ccccc3)c(=O)c3ccccc3n12)Nc1cccc(Cl)c1	i
COc1ccc(OC)c(S(=O)(=O)N2CCC3(CCC3OC)CC2)c1 (stereo unspecified)	i
CCc1cn(C[C@H](NC(=O)COC)C(=O)O)c(=O)[nH]c1=O	i
COc1ccc2cc1Oc1ccc(cc1)C[C@H]1c3c(cc4c(c3Oc3cc5c(cc3OC)CCN(C)[C@@H]5C2)OCO4)CCN1C	u
CCOc1ccc(CCN2C(=O)c3ccc(-c4ccco4)n3CC2(C)C(=O)NCc2ccccc2)cc1 (stereo unspecified)	i
O=C(C1CCCN([S+](=O)([O-])c2cccs2)C1)N1CCC(c2nc3ncccc3[nH]2)CC1 (stereo unspecified)	i
O=S(=O)(c1ccc2c(c1)CCC2)N1CCC(Cc2nc(-c3ccncc3)n[nH]2)C1 (stereo unspecified)	i
CCCN1C(=O)c2c(C(=O)NCc3ccc(C)o3)ncn2CC1(C)C(=O)NCCC(C)C (stereo unspecified)	i
CC(C)Cn1c(=O)c2ccccc2n2c(SCC(=O)Nc3ccccc3F)nnc12	i
CCCc1noc(-c2cccn3c(CNC(=O)c4ccc(OCC)cc4)nnc23)n1	i
CC1CC(C)CN(CCCN2C(=O)c3nc4ccccc4n3CC2(C)C(=O)NC2CCCCCC2)C1 (stereo unspecified)	i
O=C(Cn1nc2n(c1=O)CCCC2)N1CCN(c2ccc(F)cc2)CC1	i
CCCn1c(=O)c2ccccc2n2c(=O)n(CC(=O)c3cccc(OC)c3)nc12	i
CCCn1c(=O)c2ccc(C(=O)NC(C)C)cc2n2c(SCC(=O)c3ccc(C)cc3)nnc12	i
CC(C)Cn1c(=O)c2ccc(C(=O)NC3CCCC3)cc2n2c(=O)n(Cc3ccccc3)nc12	i
CCOCCCN1C(=O)c2ccc(-c3ccccc3)n2CC1(C)C(=O)NC1CCCCCCC1 (stereo unspecified)	i
Fc1cnc(N2CCCC(OCc3cccnc3)C2)nc1N1CCOCC1 (stereo unspecified)	i
Cc1ccc2nc(Nc3ccc4c(c3)n(C)c(=O)n4C)c(-n3nc(C)cc3C)nc2c1	i
C=C1C(OC(C)=O)CCC2(C)CC3(OC)OC(=O)C(C)=C3CC12 (stereo unspecified)	i
FC(F)(F)c1cccc(C2=NOC3(CCCN(CC4CCCCC4)C3)C2)c1 (stereo unspecified)	i
O=C(CCc1nc(-c2cccnn2)no1)NC1CCCCCCC1	i

Structures above with a thiophene ring, fused or not (5):
SMILES	Methyltransferases
COc1cccc(CNC(=O)N2Cc3c(sc4c3CCCC4)-n3cccc3C2c2cc(F)cc(F)c2)c1 (stereo unspecified)	i
COCCN1CC(C(=O)NCc2sc3ccccc3c2Cl)CCC1=O (stereo unspecified)	i
CC1(C(=O)NC2CCCCCC2)Cn2c(cc3occc32)C(=O)N1Cc1cccs1 (stereo unspecified)	i
Cc1ccc(C(=O)NCc2nnc3ccc(-c4ccccc4)nn23)s1	i
O=C(C1CCCN([S+](=O)([O-])c2cccs2)C1)N1CCC(c2nc3ncccc3[nH]2)CC1 (stereo unspecified)	i
